Compound activity from PubChem.
AID504770 – growth inhibitors of E. coli YBA685 in a screen for V. cholerae RctB (chromosome II replication) inhibitors | E. coli YBA685 rctB-dependent plasmid, OD600 growth, 3 h; active compounds read low | z-score (concentration not given with the values) | actives 0.27% (n = 130,000) | AID 504770;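 active = z-score under -2 on both plates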;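 also: wells of about 30 µL received 100 nL stock; score is relative to mean and SD of the test wells; the first replicate is given; strong numbers were not always called active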
CapD inh – CapD enzyme inhibition | purified CapD enzyme, fluorescence intensity read-out; active compounds read low; some hits fall short of the stated cut | z-score (no concentration beside the values) | actives 0.23% (n = 140,000) | AID 492967;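 active = z-score under -4 in either of two replicates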;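 also: stock transfer was 100 nL into about 40 µL; score is relative to mean and spread of the plate; one replicate is shown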
The depositor's hits bear a star; & = joins results of further samples. The list is partial. The share of hits here may be higher or lower than overall.

Screening COCCN(C(=O)CCC(=O)NCc1cccc(C(F)(F)F)c1)C1CCN(C)CC1 returned CapD inh -0.63.
`CC12CC3(C)CC(C)(C1)CC(CCO)(C2)C3` gave AID504770 0.7 and CapD inh -0.2.
Screening CNC(=O)c1ccccc1Sc1ccc(OC)cc1C(=O)NC returned AID504770 -1.15 and CapD inh -0.155.
Screening CC(=O)Nc1cccc(Oc2nc(C)nc3sc4c(c23)CCC4)c1 returned AID504770 -0.35 and CapD inh 0.02.
`Cc1noc(C)c1C(=O)Nc1ccc(-n2ccc(C(F)(F)F)n2)cc1` gave AID504770 -0.8 and CapD inh -0.78.
O=C1c2oc3ccccc3c(=O)c2C(c2cccs2)N1c1nccs1 (centres undefined) was read as AID504770 0.15 and CapD inh 0.1.
`CC(c1nnc(SCC(=O)N(CC#N)c2ccccc2)n1-c1ccc(F)cc1)N1CCCCC1` (centres undefined) gave AID504770 -0.4.
CCc1ccc(NC(=O)CCc2nc3ccccc3[nH]2)cc1 was read as AID504770 1.05 and CapD inh 0.635.
O=S(c1nc2ccccc2[nH]1)C(F)(F)F (centres undefined) was read as AID504770 -0.65.
O=C1CCCC2=C1C(c1ccco1)C1=C(N2)c2ccccc2C1=O (centres undefined) was read as AID504770 -0.05 and CapD inh 0.365.
For CCCN1C(=O)C2(c3ccccc31)c1c(oc3cc(C)c(C)cc3c1=O)C(=O)N2CCO (centres undefined) the results were AID504770 0.3 and CapD inh -1.13.
Screening Cc1cccc(NC2=NC(=S)N(c3ccc(Br)cc3)C23CCCCC3)c1 returned CapD inh -0.345.
For O=C(NCc1cccnc1)c1cc2c(=O)c3ccccc3oc2nc1C(F)(F)F the results were CapD inh 0.87.
COC(=O)NCCSc1nnnn1-c1ccccc1 was read as AID504770 1.9.
O=C(Nc1cccnc1)c1cc(-c2ccc(F)cc2)no1 was read as AID504770 0.3 and CapD inh -0.21.
For CC(=O)c1ccc(NC(=O)CSc2nc3ccc(N4C(=O)c5ccccc5C4=O)cc3s2)cc1 the results were CapD inh -0.915.
Screening Cc1nc2cc(CC(=O)O)ccc2s1 returned AID504770 -0.2 and CapD inh 0.305.
For COc1ccc(S(=O)(=O)NCc2c(F)cccc2Cl)cc1OC the results were AID504770 -0.6 and CapD inh -0.89.
Cc1cc(C)n2cc(CN(C)Cc3ccccc3)nc2n1 was read as AID504770 -0.75.
Screening Cc1ccc2oc(=O)c3cnn(CC(=O)NCCCN4CCc5ccccc5C4)c3c2c1 returned AID504770 -0.05 and CapD inh 0.26.

Arranged by length of the SMILES (rising): four of the compounds above
`CC12CC3(C)CC(C)(C1)CC(CCO)(C2)C3` gave AID504770 0.7 and CapD inh -0.2.
O=C1CCCC2=C1C(c1ccco1)C1=C(N2)c2ccccc2C1=O (centres undefined) was read as AID504770 -0.05 and CapD inh 0.365.
For O=C(NCc1cccnc1)c1cc2c(=O)c3ccccc3oc2nc1C(F)(F)F the results were CapD inh 0.87.
Screening COCCN(C(=O)CCC(=O)NCc1cccc(C(F)(F)F)c1)C1CCN(C)CC1 returned CapD inh -0.63.

2 records picked at random from those above, as already listed:
For O=C(NCc1cccnc1)c1cc2c(=O)c3ccccc3oc2nc1C(F)(F)F the results were CapD inh 0.87.
Screening CC(=O)Nc1cccc(Oc2nc(C)nc3sc4c(c23)CCC4)c1 returned AID504770 -0.35 and CapD inh 0.02.

Additional records.
`CC(C)CC(NC1CCS(=O)(=O)C1)C(=O)O` (centres undefined) gave AID504770 -0.85 and CapD inh -0.185.
For Cc1ccc(NC(=O)c2sc3nc(C(F)(F)F)nn3c2C)cc1 the results were AID504770 0.15 and CapD inh -0.49.
`O=C(COC(=O)Cn1[nH]c(=O)c2ccccc2c1=O)Nc1ccc2c(c1)OCO2` gave AID504770 0.1.
For COc1cc(NC(=O)Cn2cnc3ccc(S(=O)(=O)N4CCC(C)CC4)cc3c2=O)cc(OC)c1OC the results were AID504770 -0.95 and CapD inh -0.275.
CCCCc1ccc(-c2csc(N)n2)cc1 was read as AID504770 2.35 and CapD inh -0.395.
Screening O=C(c1ccccc1)C(Br)(Br)c1ccccc1 returned CapD inh 0.44.
O=c1c2ccccc2c(C=NCCCn2ccnc2)c(O)n1-c1ccccn1 was read as AID504770 -0.65.
Screening c1ccc(-c2nc(SCC3COc4ccccc4O3)oc2-c2ccccc2)cc1 (centres undefined) returned AID504770 1.1 and CapD inh 47.3.
COC(=O)c1ccc(N2CCN(c3ccc([N+](=O)[O-])cc3)CC2)c([N+](=O)[O-])c1 was read as CapD inh 0.075.
`CCOC(=O)C1C(=O)Nc2nc3ccccc3n2C1C(C)C` (centres undefined) gave AID504770 -1.9 and CapD inh 0.425.
Screening c1cc2nsnc2c2c1Nc1nc3nonc3nc1N2 returned AID504770 0.25 and CapD inh -0.49.
For CC(C)c1ccc(CN2C(=O)c3ccccc3C2=O)cc1 the results were AID504770 -0.6.
`COC(=O)c1ccc(NC(=S)NC(=O)N2CCOCC2)cc1` gave AID504770 -1.05 and CapD inh -0.135.
`Oc1ccccc1/C=N/c1nccs1` gave CapD inh 0.235.
Screening O=C(/C=C/c1ccc2ccccc2n1)N1CCN(c2ccccc2)CC1 returned AID504770 0.3.
For COCCCNC(=O)C(=O)Nc1ccc(C)cc1 the results were CapD inh 0.985.
Screening Cc1ccc(NC(=O)CCc2nnc3ccc(N4CCN(C5CCCCC5)CC4)nn23)cc1C returned AID504770 1.5 and CapD inh 0.445.
For COc1nc(-c2ccccc2)cc(-c2ccc(F)cc2)c1C#N the results were CapD inh 3.92.
For Clc1ccccc1OCCn1cnc2ccccc21 the results were AID504770 -0.45 and CapD inh -0.095.
`CC1(C)CC(=O)C/C(=N\NC(=O)CCc2ccccc2)C1` gave AID504770 -0.95.
`CCCn1c(=O)c2c(nc3oc(-c4ccccc4)cn32)n(C)c1=O` gave AID504770 -0.9.
`CC(C)(C)c1ccc(Oc2cnn(-c3ccccc3)c(=O)c2Cl)cc1` gave CapD inh 0.225.
`CCOC(=O)C1=CN(Cc2ccc(OC)c(OC)c2)C=C(C(=O)OCC)C1c1cc(Br)c(OC)c(OC)c1` gave CapD inh 51.5.
Screening Cc1nn(-c2ccccc2)c(C)c1CN1CCC(NC(=O)OCCc2ccc(Cl)cc2)C1 (centres undefined) returned CapD inh -0.675.
CS(=O)(=O)c1ccc(S(=O)(=O)NCCCN2CCc3ccccc32)cc1 was read as CapD inh -0.09.
For Nc1nc(-c2ccccc2)cc(C(F)(F)F)n1 the results were CapD inh 36.6.
Screening COc1cccc(CN2CCN(C(=O)c3ccc(N4N=C(C)CC4=O)cc3)CC2)c1 returned CapD inh -0.265.
Screening CCc1cccc(NC(=O)Cn2c(C(=O)OC)cc3ccsc32)c1 returned AID504770 0.95 and CapD inh -0.46.
Brc1ccccc1NC1=NCCC1 was read as AID504770 -0.1.
For Brc1cc(I)ccn1 the results were AID504770 0.2.
`S=C(NCc1cccs1)NC1CC1` gave CapD inh 0.38.
Screening C=CCN(CC=C)C(=O)CSc1nnc2c3ccccc3n(C)c2n1 returned AID504770 -0.1 and CapD inh -0.585.
For CCc1nnc(NS(=O)(=O)c2ccc(NC(=O)c3cc4ccccc4oc3=O)cc2)s1 the results were CapD inh -0.43.
Screening CS(=O)(=O)c1ccc2ccn(OCc3nc4ccccc4[nH]3)c2c1 returned CapD inh 1.15.
CC1(C)C2CC=C(C3N=C(N)Nc4nc5ccccc5n43)C1C2 (centres undefined) was read as AID504770 -0.75.
O=S(=O)(c1ccccc1)N1CCn2c(nc3ccccc32)C1 was read as AID504770 -0.35 and CapD inh -0.14.
Screening Cc1onc(-c2ccccc2)c1C(=O)/C=C/N(C)C returned AID504770 -1.3 and CapD inh 7.26.
For COc1ccc(OC)c(-c2csc(NC(=O)C3=NN(C)C(=O)CC3)n2)c1 the results were AID504770 0.15.
CSCCC1COC(c2cccs2)=N1 (centres undefined) was read as AID504770 0.85.
CC(=O)N1CCc2cc(S(=O)(=O)CCC(=O)NCc3ccccc3)ccc21 was read as AID504770 0.3 and CapD inh -0.44.

In the list so far, 2 contain a cyano group.
`CC(c1nnc(SCC(=O)N(CC#N)c2ccccc2)n1-c1ccc(F)cc1)N1CCCCC1` (centres undefined) gave AID504770 -0.4.
For COc1nc(-c2ccccc2)cc(-c2ccc(F)cc2)c1C#N the results were CapD inh 3.92.

Returning to the listing with the two entries that preceded the break.
CSCCC1COC(c2cccs2)=N1 (centres undefined) was read as AID504770 0.85.
CC(=O)N1CCc2cc(S(=O)(=O)CCC(=O)NCc3ccccc3)ccc21 was read as AID504770 0.3 and CapD inh -0.44.
For Nc1nc2c(c(C(F)(F)F)n1)CCc1ccccc1-2 the results were AID504770 -0.05 and CapD inh 38.1.
`O=c1c2cc(-c3ccccc3)sc2ncn1/N=C/c1cccs1` gave AID504770 0.55 and CapD inh -0.76.
`Cc1ccc2onc(CNC(=O)N(C)C3CCCCC3)c2c1` gave AID504770 -0.7 and CapD inh -0.43.
Screening Cc1ccc(C(=O)C2CC2)cc1 returned AID504770 -0.75.
CC1CCC2(CC1)c1cnn(C(C)C)c1N=C(c1ccc(F)cc1)N2C (centres undefined) was read as AID504770 -0.35.
For Cc1cccc(-c2nc3n(n2)C(=O)CC(c2ccc(F)cc2)S3)c1 (centres undefined) the results were AID504770 1.85 and CapD inh 0.755.
O=C(NCc1ccc(Cl)cc1)C1(NS(=O)(=O)c2cccc3cccnc23)CCCCC1 was read as AID504770 0.25 and CapD inh 0.56.
Screening O=C(CSc1ncccc1C(=O)O)NCCc1ccccc1 returned CapD inh 0.18.
`CCCCC(=O)n1c(=O)oc2ccc(C)cc21` gave AID504770 -0.6 and CapD inh 0.43.
For COc1ccc(OCc2nnc(SCC(=O)N(C)c3ccccc3)n2Cc2ccco2)cc1 the results were AID504770 0.7.
Screening Cc1ccc2nc(NC(=O)CC3Oc4ccccc4NC3=O)sc2c1 (centres undefined) returned AID504770 -0.45 and CapD inh -0.54.
For COC(=O)CSc1nc2c(cnn2-c2ccccc2)c(=O)[nH]1 the results were AID504770 1.05 and CapD inh -0.11.
COC(=O)c1ccc(CNC(=O)CNc2cc(C(F)(F)F)ccc2N2CCOCC2)cc1 was read as AID504770 0.9.
Screening O=C(OCCc1ccc(Cl)cc1)N1CCN(c2ccc(C(F)(F)F)cn2)CC1 returned CapD inh 3.7.
For CCSc1nc2c([nH]c3ccccc32)c(=O)n1-c1ccccc1 the results were AID504770 0.75 and CapD inh 0.415.
Cc1cc(Cl)nc(C)n1 was read as AID504770 0.8.
For Cc1ccc(C2CC(c3cccs3)=NN2C(=O)CSc2cn(C)c3ccccc23)cc1 (centres undefined) the results were CapD inh -0.075.
For C=CCON1C(=O)C2C3C=CC(O3)C2C1=O (centres undefined) the results were AID504770 0.4 and CapD inh 0.485.
For S=c1[nH]ncn1-c1ccccc1 the results were AID504770 -0.3&-1.8 and CapD inh -0.055.
`COCc1cc(C)n(CC(=O)Nc2cc(Cl)ccc2OC)c(=O)c1C#N` gave AID504770 0.95 and CapD inh 0.285.
Screening Cc1sc(NC(=O)C2=NNC(=O)CC2)nc1-c1ccc(F)cc1 returned AID504770 -0.45.
`Cc1cc(C)c(C#N)c(OCc2cccc(C(F)(F)F)c2)n1` gave AID504770 -0.6 and CapD inh 0.135.
N#CC(c1ccco1)N1CCN(C(=O)c2ccccc2)CC1 (centres undefined) was read as AID504770 -0.6 and CapD inh 0.26.
Screening CC(=O)Nc1ccc(S(=O)(=O)NC(CC(=O)O)C(C)C)cc1 (centres undefined) returned AID504770 -0.05 and CapD inh 0.38.
`O=C(O)C1CCCN(c2nn3cc(-c4ccc(F)cc4)nc3s2)C1` (centres undefined) gave AID504770 -0.3 and CapD inh 0.41.
O=C(c1ccc(Br)o1)N(c1ccccn1)C1CCCCC1 was read as AID504770 0.8.
`COc1ccc(C2C(C(=O)NC3CCCCCC3)CCC(=O)N2c2ccc(OC)cc2)cc1` (centres undefined) gave CapD inh -0.04.
Cc1cc(C(C)C)n2c(nc3ccccc32)c1C#N was read as AID504770 -0.25.
Screening CCc1cccc(NC(=O)Cn2cccc2)c1 returned AID504770 1.1 and CapD inh -0.3.
Screening Cc1ccc(CNC(=O)c2c(C)cc(=O)oc2C)cc1 returned AID504770 -0.3 and CapD inh 0.405.
For CCC1CCCCN1C(=O)Cn1c(SCc2ccc(OC)cc2)nc2ccncc21 (centres undefined) the results were AID504770 -0.75 and CapD inh -0.39.
For CC1=NNc2nc3c(c(=O)[nH]c(=O)n3C)n2C1 the results were AID504770 1.1.
For O=C(O)CCN1C(=O)CSC1=O the results were AID504770 -0.35.
CCOC(=O)c1sc(NC2CCCC2)nc1C was read as AID504770 0.2.
Fc1ccc(C2Oc3ccccc3C3=C2C(c2cccs2)n2ncnc2N3)cc1 (centres undefined) was read as CapD inh 1.57.
`Cc1ccc2nc(N3CCN(C(=O)C(F)(F)F)CC3)nc(-c3ccccc3)c2c1` gave CapD inh -0.43.
For COc1ccccc1OCCSc1nc2ncnc(N)c2[nH]1 the results were AID504770 -0.35 and CapD inh 0.875.
`O=C(O)Cc1ccc2ccccc2c1Br` gave AID504770 1.25 and CapD inh 0.7.
Screening CCC1(C)Cc2c(sc3nc(SC)n4c(SCc5ccccc5)nnc4c23)CO1 (centres undefined) returned AID504770 -0.2 and CapD inh 12.5.
`CC1CCCN(Cn2cnc3ccccc32)C1` (centres undefined) gave AID504770 -1 and CapD inh -0.4.
